PINK1 expr mod: A Quantitative High throughput Screen to Identify Chemical Modulators of PINK1 Expression. PINK1 immunofluorescence, high-content cytometry, 24 h. Potency, µM (doses to about 76.6 µM), inactives show top-dose activation (PINK1 increase), hits mostly activators. hit rate 0.2% among 410,000. AID 624263, 2012; active = well fitted activation curve with a large enough effect; inconclusive = small, poorly fitted or top-dose-only effect; inactive = flat fitted curve, though single readings scatter; cell line not stated here;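 further: potency means the concentration at half of the fitted maximal effect; % of control where 0% means no effect; nearly all actives have a fitted effect of over 65% in size; a mitochondrial uncoupler was the plate control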
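PINK1 protein level read as immunofluorescence by microplate cytometer in a fixed, stained stable cell line after 24 h exposure to five compound concentrations, with CCCP as control.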
D2 potentiator: Beta-Arrestin HTS for Positive Allosteric Modulators of the Human D2 Dopamine Receptor: Potentiators. DiscoveRx D2 beta-arrestin cells, luminescence, 90 min; 100% = 57 uM dopamine signal. hit rate 0.23% among 360,000. D(2) dopamine receptor (Homo sapiens), P14416. potentiation, % (no concentration beside the values); active = potentiation of 50% or more; inconclusive = 30% to 50%; inactive = 30% or less;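 further: compound concentration not given in the record; tested on top of an EC20 dose of dopamine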
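PathHunter D2 cells, attached overnight at 37 deg C, received compound in DMSO plus dopamine at EC20 (50 nM final) for 90 min at 37 deg C. Beta-arrestin recruitment was read as luminescence after 1 h with detection reagent at ambient temperature.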
TRPML1 inh: qHTS for Inhibitors of the Human Mucolipin Transient Receptor Potential 1 (TRPML1); AID 624415, 2012; TRPML1-inducible cells, Ca2+ dye fluorescence, FDSS; active compounds read low; inhibition of EC80 agonist-evoked calcium signal; hit rate 0.02% among 390,000; activity change, negative = inhibition, % (concentration not given with the values); in the data active means activity change below about -50%; inconclusive means about -30% to -50%; inactive means above about -30%;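 further: stimulus is agonist 54-4 at its EC80 concentration; on the % scale 0 is the no-effect control and ±100 the full control effect; the text of the record puts the active cut at -80%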
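Tet-induced TRPML1-DL cells loaded with Ca8 no-wash calcium dye were read kinetically on FDSS. Compound addition was followed by EC80 agonist 54-4 (4 uM final); inhibition was read over 110 s.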
Six1-Eya2 inh: qHTS Assay for Inhibitors of the Six1/Eya2 Interaction | Homeobox protein SIX1 (Homo sapiens) + Protein phosphatase EYA2 (Homo sapiens), … | activity change, % (concentration not given with the values) | AID 651725, 2012 | AlphaScreen GST-Six1/His-Eya2 binding, biochemical; active compounds read low; control for the full effect not named in the record | hit rate 0.56% among 360,000; in the data active = activity change below about -65%; inconclusive = about -30% to -65%; inactive = above about -30%; further: on the % scale 0 is the no-effect control and ±100 the full control effect
Target sequence (O00167 whole entry, looked up): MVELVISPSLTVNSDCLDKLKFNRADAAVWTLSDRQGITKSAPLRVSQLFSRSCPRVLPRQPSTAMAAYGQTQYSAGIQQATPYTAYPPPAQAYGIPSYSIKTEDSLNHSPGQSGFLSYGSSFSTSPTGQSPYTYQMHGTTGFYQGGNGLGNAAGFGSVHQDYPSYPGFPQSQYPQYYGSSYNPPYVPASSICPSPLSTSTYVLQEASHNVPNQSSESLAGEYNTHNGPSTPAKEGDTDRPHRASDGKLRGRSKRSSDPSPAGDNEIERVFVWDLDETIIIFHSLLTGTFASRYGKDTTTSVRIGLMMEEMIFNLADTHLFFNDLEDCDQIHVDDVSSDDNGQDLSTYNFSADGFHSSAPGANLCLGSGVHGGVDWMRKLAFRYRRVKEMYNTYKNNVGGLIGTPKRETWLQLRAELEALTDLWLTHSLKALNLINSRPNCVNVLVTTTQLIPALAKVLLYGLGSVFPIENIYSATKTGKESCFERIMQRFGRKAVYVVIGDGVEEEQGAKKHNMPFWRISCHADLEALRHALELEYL
Target sequence (Q15475 whole entry, looked up): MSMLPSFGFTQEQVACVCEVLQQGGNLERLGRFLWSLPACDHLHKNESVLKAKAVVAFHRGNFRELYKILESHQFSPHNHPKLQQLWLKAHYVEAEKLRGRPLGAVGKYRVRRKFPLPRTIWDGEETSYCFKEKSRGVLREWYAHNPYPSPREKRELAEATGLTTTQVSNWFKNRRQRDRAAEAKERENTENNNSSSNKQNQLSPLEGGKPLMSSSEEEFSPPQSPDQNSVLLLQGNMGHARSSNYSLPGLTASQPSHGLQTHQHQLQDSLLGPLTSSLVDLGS
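AlphaScreen with GST-Six1 and His-Eya2 (5X mix: 250 nM and 500 nM), glutathione donor and nickel acceptor beads; buffer 50 mM Tris pH 8.0, 300 mM NaCl, 1 mM TCEP; 1 h at 37 C in the dark.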
D2 agonist: Beta-Arrestin HTS for Positive Allosteric Modulators of the Human D2 Dopamine Receptor: Agonists; D(2) dopamine receptor (Homo sapiens), P14416; DiscoveRx PathHunter D2 beta-arrestin, luminescence, 90 min; 100% = 57 uM dopamine signal; activation, % (test concentration not listed); hit rate 0.084% among 360,000; in the data active = activation above about 40%; inconclusive = about 15% to 40%; inactive = below about 15%; further: compound concentration not given in the record; the text of the record calls up to 30% inactive
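DiscoveRx PathHunter D2 beta-arrestin cells (2,100/well) attached overnight, then compound-stimulated 90 min at 37 C in HBSS/10 mM HEPES/0.1% Tween-20 buffer; beta-galactosidase complementation read by luminescence after 1 h at ambient temperature. Dopamine 57 uM final (EC100) as control.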
TRPML1 ag: qHTS for Agonists of the Human Mucolipin Transient Receptor Potential 1 (TRPML1). TRPML1-expressing cells, Ca2+ dye fluorescence, FDSS; host cell line not named in the record; reference of the full effect not given here. activation, % (no concentration beside the values). hit rate 0.12% among 410,000; in the data active = activation above about 50%; inconclusive = about 30% to 50%; inactive = below about 30%; further: 0% is about no effect; the text of the record puts the active cut at 80%
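Calcium fluorescence on an FDSS kinetic reader gave the read-out. Tet-induced TRPML1-DL cells were plated overnight, dye-loaded (Ca8 with quencher, 45-90 min, room temperature, dark), then read 110 s after compound addition, and again 110 s after 4uM final 54-4 (EC80).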
An asterisk follows results filed as active; u = inconclusive; x = no result given; [ ] = another dose, or the depositor's remark.

Molecule	Six1-Eya2 inh	TRPML1 ag	TRPML1 inh	PINK1 expr mod	D2 agonist	D2 potentiator
COc1ccc(C(C)=O)cc1CSc1nnc(-c2ccccc2O)n1-c1ccccc1	-6	0.4	-1	-0.4%[38.3 µM]	-3.1	0
CCCCN(C(=O)Cc1cccs1)c1nnc(-c2cccnc2)s1	3	0.8	-8	0.7%	-0.1	14
NC(N)=Nc1nc2ccc([N+](=O)[O-])cc2[nH]1	u	0.3	-9	-0.1%	4.3	2
Cc1ccc(NS(=O)(=O)c2ccc(OCC(=O)NCc3ccccn3)cc2)cc1	-1	0.0	-22	-0.1%	-2.7	12
COC(=O)CCCC1=CC2=CC(=O)C(C)(OC(=O)c3cccs3)C(=O)C2=CN1CCCCO (stereo unspecified)	-1	-1.0	10	1.1%	5.3	6
COc1cc(CO)ccc1OCC(=O)N1CCc2ccccc21	1	-0.9	15	-0.7%	0.9	4
CCCOC(=O)c1cc2ccccc2oc1=O	5	0.8	9	x	-3.7	-7
CC(C)Oc1ccc(C(=O)NCC(=O)N2CCN(S(=O)(=O)/C=C/c3ccccc3)CC2)cc1	4	2.7	26	2.4%	-2.3	-1
Cc1ccc(C(=O)CC2(O)C(=O)N(CCc3ccccc3)c3ccc(Br)cc32)o1 (stereo unspecified)	-7	1.2	-8	6.5%	-16	-14
O=C(NCc1n[nH]c(=S)n1-c1ccc(F)cc1)c1ccco1	4	0.0	2	u	1.9	-2
C#CCOC(=O)c1ccccc1C(=O)n1nnc2ccccc21	-3	3.2	-3	-1.7%[38.3 µM]	0.1	-14
CC(=O)Nc1ccc(Nc2c([N+](=O)[O-])c(=O)n(-c3ccccc3)c3ccccc23)cc1	6	0.4	-14	2.8%	1.2	-4
COc1ccc(C(=O)Nc2c(N)nc(SCC(=O)N3CCC(C)CC3)[nH]c2=O)cc1OC	-1	0.4	-11	0.3%	-2.9	0
CCCN1CNC(=S)N(c2cccc(C)c2C)C1	4	-0.5	2	u	-3.2	-2
CN(C[C@H](Cc1ccccc1)N(CCN(CCc1ccccc1)N=O)N=O)N=O	-10	0.6	0	0.6%	-0.7	-14
O=C(CC1SC2=NCCN2C1=O)Nc1ccc(Cl)cc1 (stereo unspecified)	8	0.8	-7	-0.3%	-1.2	-9
Cc1ccc(C)c(NC(=O)CN2CCSc3ccc(S(=O)(=O)N4CCCC4)cc32)c1	x	1.4	10	3.4%	x	x
CCOC(=O)N1CCC2(O)CCCCC2C1c1ccc(F)cc1 (stereo unspecified)	12	-0.3	-8	0.8%	-0.7	-14
Cc1c(C#N)c(=O)oc2ccc3ccccc3c12	-10	-0.3	12	3.5%	0.9	-7
COc1ccc(OC)c(-n2c(=S)[nH]c3c(sc(=S)n3-c3ccccc3)c2=O)c1	-7	0.1	-2	1.8%	1.0	-1
CCOc1ccccc1NC(=O)CCc1nnc2ccc(N3CCC4(CC3)OCCO4)nn12	-10	0.4	-4	-0.5%	-0.4	-29
COCCCNc1nc(NCc2ccccc2OC)c2cnn(C)c2n1	x	2.7	-12	3.7%	x	x
COc1cc(NS(C)(=O)=O)c(OC)cc1NC(=O)c1cccc(F)c1	0	5.1	4	3.4%[38.3 µM]	-0.9	2
N/C(=N/OC(=O)c1cccc([N+](=O)[O-])c1)c1cccc([N+](=O)[O-])c1	-4	0.0	8	9.0%	u	u
COc1ccc(OC)c(NCc2cccn2-c2nnc(N3CCCCC3)s2)c1	x	0.5	14	3.1%	x	x
C=C(C)CSc1nnc2[nH]c(=O)cc(N)n12	1	-0.4	-14	-0.6%	-1.0	-22
CC1(C)OC(=O)C2=C(C[C@@H](C3CCCCC3)O[C@H]2c2ccc(F)cc2)O1	9	3.2	21	16%	-4.6	-5
COc1cccc(OCc2cc(C(=O)N(C)CCC3CCCCO3)no2)c1 (stereo unspecified)	-1	0.1	-10	-0.7%	0.8	0
O=C(CN1CCc2ccccc2C1)NC1CCCC1	4	0.3	-7	1.8%	1.5	-8
COC(=O)CSc1nc(NCc2ccccc2)nc(N(C)C)n1	2	-0.6	-7	0.5%	1.1	0
COc1ccc(C(=O)NCC(c2ccc(Cl)cc2)N2CCCCC2)cc1 (stereo unspecified)	x	-0.5	12	-0.4%	x	x
COc1ccc(OC)c(Nc2nc(NCCC(C)C)nc(N)c2[N+](=O)[O-])c1	-9	-0.8	11	9.9%	-4.9	1
Cc1cc(Nc2ccc(Cl)cc2)n(-c2cccc(Cl)c2)n1	11	0.0	59	u	-0.1	-5
COc1ccc(C(=O)Nc2ccc(S(=O)(=O)N3CCOCC3)cc2)cc1	-13	0.8	-12	2.5%	-1.5	-14
Cc1cccc(-n2ccnc2SCC(=O)Nc2ccc3c(c2)OCO3)c1	x	1.1	-16	-5.1%	x	x
CCC(=O)Nc1ccc(C(=O)OCc2ccccc2)cc1	6	0.5	30	0.8%	-2.6	-8
N#CCCn1cc(C(=O)Nc2ccc([N+](=O)[O-])cc2)c(-c2cccs2)n1	-8	-0.1	0	2.2%	1.0	-2
CCOC(=O)Cc1csc(NC(=O)CCN2C(=O)c3cccc([N+](=O)[O-])c3C2=O)n1	12	-0.6	1	1.1%	-2.0	0
Cc1ccc(CCNS(=O)(=O)c2ccc3c(c2)CCN3C(=O)CCC(=O)O)cc1	x	-0.2	2	4.7%	x	x
Cn1c(SCC(=O)N2CCOCC2)nc2sc3c(c2c1=O)CCCC3	4	-0.9	12	-1.1%[38.3 µM]	-0.9	-2
c1ccc(CN(CCN2CCOCC2)Cc2ccccc2)cc1	3	0.5	2	1.8%	-2.9	-15
O=C(Nc1ccc(NS(=O)(=O)c2ccccc2)cc1)c1ccccc1	0	1.2	-11	6.0%	2.3	-4
O=C(N/N=C/c1ccc[nH]1)c1cc(-c2cccs2)nc2ccccc12	u	-1.2	7	7.0%	3.9	-6
Cc1cc([N+](=O)[O-])cc(C)c1OCC(=O)N/N=C/c1ccc(OC(=O)c2ccccc2Br)cc1	-11	1.1	-16	u	-1.8	2
CCCCOc1ccc(NC(=O)CN2CCN(CC)CC2)cc1	3	-0.6	-2	-0.1%	-1.9	-2
COc1cc(C(=O)N2C(=O)CCC2=O)cc(OC)c1OC	-7	0.0	6	1.9%	-5.3	-13
COc1ccc(-c2noc(CCCCC(=O)N3CCN(c4cc(C)ccc4C)CC3)n2)cc1	-2	0.1	-11	2.1%	-5.3	-6
CCOC(=O)c1ccccc1NC(=O)CSc1cccc[n+]1[O-]	-2	-0.7	-14	-1.7%	-5.5	-10
C=CCOC(=O)C1=C(C)NC(=O)NC1c1ccc(OC(=O)c2ccco2)c(OC)c1 (stereo unspecified)	-8	0.2	6	-0.2%	-1.6	-10
O=C(CN1C(=O)NC2(CCc3ccccc32)C1=O)c1ccc2c(c1)OCCO2 (stereo unspecified)	-3	2.4	-22	-0.4%	-0.7	-6
COc1ccc(OCc2nnc(NC(=O)Nc3ccccc3F)s2)cc1	5	-0.3	-24	7.0%	-1.7	1
COC(=O)C1=C(N)OC2=C(C(=O)CCC2)C1c1ccccc1OC (stereo unspecified)	1	0.2	16	0.3%	-2.5	-13
CC(=O)c1ccc(NC(=O)CNC2CCCCC2)cc1	1	-0.7	u	-1.2%	-2.8	-7
Cc1cccc(-n2ncc(C(=O)N3CCN(c4ccc(C)cc4C)CC3)c2C2CCN(C(=O)OC(C)(C)C)CC2)c1	x	20	-13	1.9%	x	x
S=C(NCc1cccs1)Nc1ccccc1	-3	-0.6	-15	-0.2%	-5.0	-1
O=C(NCc1ccc(Cl)cc1)c1cc(=O)[nH]c2ccc(S(=O)(=O)N3CCOCC3)cc12	-3	1.3	15	3.5%	-0.9	-2
CCOc1ccc(/C=C/C(=O)N(CC)CC(=O)Nc2ccc3c(c2)OCCO3)cc1OC	1	1.0	7	-1.5%	-3.2	-18
O=C(NC1CCCCC1)NC1CCN(CC(=O)N2CCOCC2)CC1	2	1.6	-9	1.6%	-2.0	-35
Cc1ccc(-n2c(C)cc(/C([O-])=C(/C(=S)Nc3ccc(F)c(Cl)c3)[n+]3ccccc3)c2C)cc1	-23	1.7	-21	13%	-2.9	-28
COc1ccc(OC)c(CN2CCC(C(=O)N(C)CCc3ccc(OC)c(OC)c3)CC2)c1	-2	2.1	-3	-1.0%	3.7	8

Arranged by heavy-atom count (highest first): part of the list above.
Molecule	Six1-Eya2 inh	TRPML1 ag	TRPML1 inh	PINK1 expr mod	D2 agonist	D2 potentiator
C=CCOC(=O)C1=C(C)NC(=O)NC1c1ccc(OC(=O)c2ccco2)c(OC)c1 (stereo unspecified)	-8	0.2	6	-0.2%	-1.6	-10
COC(=O)C1=C(N)OC2=C(C(=O)CCC2)C1c1ccccc1OC (stereo unspecified)	1	0.2	16	0.3%	-2.5	-13
c1ccc(CN(CCN2CCOCC2)Cc2ccccc2)cc1	3	0.5	2	1.8%	-2.9	-15

Looked up above:
COc1ccc(OC)c(CN2CCC(C(=O)N(C)CCc3ccc(OC)c(OC)c3)CC2)c1 – PINK1 expr mod: -1.0%
COc1ccc(OCc2nnc(NC(=O)Nc3ccccc3F)s2)cc1 – Six1-Eya2 inh: 5

Next results
Molecule	Six1-Eya2 inh	TRPML1 ag	TRPML1 inh	PINK1 expr mod	D2 agonist	D2 potentiator
Cc1ccc(/C=C/C2=NN(Cc3ccccc3Cl)C(=O)CC2)cc1	1	0.5	-14	5.5%	-0.5	-2
CNC(=O)NC(=O)C(C)OC(=O)c1cc2c(s1)CCCCC2 (stereo unspecified)	3	2.5	-2	0.4%	-0.8	-2
O=C(Nc1cccc(Cl)c1N1CCOCC1)c1ccco1	0	3.8	-10	-0.9%	5.6	-1
NC(=O)C1=C[C@@H](c2ccc(C(F)(F)F)cc2)C[C@@H](OCc2ccc(CO)cc2)O1	0	0.1	-6	0.9%	-3.2	-12
CC(C)N1CCC(N2CCN(C/C=C/c3ccc(F)cc3)CC2CCO)CC1 (stereo unspecified)	0	-0.2	-3	0.1%	-2.9	-8
CSCCC(NC(=O)c1ccccc1)C(=O)N1CCN(C(=O)c2ccccc2)CC1 (stereo unspecified)	3	-0.1	4	1.6%	-1.1	-2
COc1cc(/C=C/C(=O)N(C)CC(=O)Nc2ccccc2SC)cc(OC)c1OC	0	2.9	4	2.0%	0.1	-19
Cc1ccc(Cn2c(=O)n(-c3cccc(C(F)(F)F)c3)c(=O)c3c(C)c(C)sc32)c(C)c1	x	1.2	26	3.9%	x	x
CCOC(=O)N1CCN(C(=O)CN(Cc2ccccc2)S(C)(=O)=O)CC1	-10	0.3	-13	-0.2%[38.3 µM]	0.0	-7
CCCn1c(/N=C/c2ccccc2O)nc2ccccc21	2	-0.1	-4	0.5%	-2.2	-12

Compound activity as filed in PubChem.
